# HNF4A DNA FP = change in binding of human HNF4A to DNA, primary screen, biochemical, fluorescence polarization, FITC-DNA; Hepatocyte nuclear factor 4-alpha (Homo sapiens), P41235; 1 h; activity change, % at 10 µM; 360,000 compounds, 0.3% hits; in the data active = activity change above about 30%, passing the limit was not always enough;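 also: controls were the assay level and a saturating level of protein; the project sought stronger binding though the title names inhibitors; some compounds called inactive have numbers as strong as hits; positive values seem to mean higher polarization but the record does not say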
# Target sequence (P41235 whole entry, looked up): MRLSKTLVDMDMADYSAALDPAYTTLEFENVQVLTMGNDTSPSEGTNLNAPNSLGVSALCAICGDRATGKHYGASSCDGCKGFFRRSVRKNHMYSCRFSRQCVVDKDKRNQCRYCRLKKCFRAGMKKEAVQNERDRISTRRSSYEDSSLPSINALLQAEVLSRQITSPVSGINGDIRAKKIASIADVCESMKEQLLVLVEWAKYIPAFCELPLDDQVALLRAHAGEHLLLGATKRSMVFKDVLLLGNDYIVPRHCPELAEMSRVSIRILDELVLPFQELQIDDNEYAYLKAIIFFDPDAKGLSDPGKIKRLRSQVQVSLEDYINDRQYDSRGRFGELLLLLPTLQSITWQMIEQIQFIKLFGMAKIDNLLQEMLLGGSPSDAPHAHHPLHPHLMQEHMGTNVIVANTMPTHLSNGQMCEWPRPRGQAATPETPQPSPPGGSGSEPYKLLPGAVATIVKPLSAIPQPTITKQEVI
# UCH37 DUB inh = inhibitors of human UCH37 deubiquitinase, primary screen, biochemical, Ub-AMC cleavage, fluorescence; Ubiquitin carboxyl-terminal hydrolase isozyme L5 (Homo sapiens), Q9Y5K5; purified proteasome/UCH37; inhibition, % (test concentration not listed); 330,000 compounds, 0.33% hits; AID 588478, 2011;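 active = mean of two replicates above 20%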;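 also: 0% = compound-free wells with enzyme and 100% = wells lacking proteasome; stock transfer was 100 nL into about 20 µL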
# Target sequence (Q9Y5K5 whole entry, looked up): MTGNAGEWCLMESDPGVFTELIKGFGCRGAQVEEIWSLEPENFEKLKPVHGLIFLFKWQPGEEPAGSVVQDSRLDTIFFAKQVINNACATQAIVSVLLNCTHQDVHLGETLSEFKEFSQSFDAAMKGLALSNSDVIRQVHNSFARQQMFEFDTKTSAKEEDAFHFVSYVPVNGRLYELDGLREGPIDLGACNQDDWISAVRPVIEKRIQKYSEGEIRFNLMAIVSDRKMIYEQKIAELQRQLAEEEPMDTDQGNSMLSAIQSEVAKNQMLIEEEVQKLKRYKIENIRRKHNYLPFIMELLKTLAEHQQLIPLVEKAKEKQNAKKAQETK
#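 Assay system: Proteasome-bound UCH37. Buffer or medium: pH 7.4 Tris-HCl (50 mM) with ovalbumin, ATP-MgCl2, DTT. Incubation: 30 min preincubation with enzyme, 25 min cleavage at room temperature. Measured by: fluorescence, ex 355 nm, em 460 nm. Read-out basis: percent inhibition. Control set: wells without proteasome as full block, compound-free enzyme plus substrate as uninhibited.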
# Beta2AR agonist = beta2AR agonists driving receptor internalization, primary screen, cell-based, FAP fluorogen, flow cytometry. Beta-2 adrenergic receptor (Homo sapiens), P07550. Am2.2-beta2AR cells; reference of the scale not given here. response, % (concentration not given with the values). 340,000 compounds, 0.43% hits. AID 504454, 2011;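 active = response above a set limit, near 3 SD of response in nonfluorescent compounds, cut at about 42% in these data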;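 also: stock transfer was 100 nL into about 11 µL; a reference agonist was the positive control; negative values mostly stem from fluorescent compounds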
# FGF22 binding = binders of human FGF22 protein, primary screen, FGF22 synaptogenesis inhibitor project, biophysical, thermal shift, single point. recombinant FGF22 thermal shift, SYPRO orange fluorescence; percent of sucrose octasulfate shift, DMSO zero. calls only at 9.99 µM. 340,000 compounds, 1.5% hits. Fibroblast growth factor 22 (Homo sapiens), Q9HCT0;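 active = melting point raised past a set limit in the mean and every replicate; inconclusive = no clear call; three in four hits are not shown here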
# E coli growth = E. coli growth inhibition, primary screen, OD600; Escherichia coli growth, 23 h; hits give low values; OD600 absorbance (concentration not given with the values); 330,000 compounds, 0.21% hits; AID 1053175, 2014;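 active = OD600 absorbance below the run mean of sample wells minus 3.6 SD, in any replicate, cut at about 0.56 in these data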;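 also: stock transfer was 300 nL into about 60 µL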
# rRNA inh HTS = reduced GFP signal of wild-type E. coli, primary screen, bacterial rRNA inhibitor project, GFP/RFP fluorescence, OD600, single point; GFP signal change (wild-type ribosome), % (no concentration beside the values); E. coli WT GFP vs humanized-ribosome RFP mutants, 24 h; hits give low values; DMSO median 0, no signal -100; 350,000 compounds, 1.6% hits;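 active = significant combined selectivity score with lowered wild-type GFP, culture density cut under 30%, mutant RFP and density less affected; inactive = any of these conditions unmet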; also: one replicate is shown; some compounds called inactive have numbers as strong as hits
# ALR inh = inhibitors of human ALR sulfhydryl oxidase, primary screen, biochemical, H2O2 detection, HRP-luminol luminescence, single point; FAD-linked sulfhydryl oxidase ALR (Homo sapiens), P55789; purified ALR, DTT oxidation; AID 485317, 2010; inhibition, % (concentration not given with the values); 290,000 compounds, 3.8% hits;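 active = mean and each replicate at 75% or more; inconclusive = only one of the two met; inactive = neither met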;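 also: stock transfer was 7.5 nL into about 7.5 µL; 0% = neutral wells and 100% = wells with inactivated enzyme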
# Target sequence (P55789 whole entry, looked up): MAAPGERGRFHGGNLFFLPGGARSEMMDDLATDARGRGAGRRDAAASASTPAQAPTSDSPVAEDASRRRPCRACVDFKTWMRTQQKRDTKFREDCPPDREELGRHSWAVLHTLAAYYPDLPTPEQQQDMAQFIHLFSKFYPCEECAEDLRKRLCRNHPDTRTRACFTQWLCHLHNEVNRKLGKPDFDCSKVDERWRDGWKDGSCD
# rRNA inh HTS OD600 = recorded beside rRNA inh HTS, whose call it bears; OD600 change, %; measured here: OD600 growth;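 optical density of the mix in the first replicate; 0 = DMSO median and -100 = no signal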
# rRNA inh HTS RFP = recorded beside rRNA inh HTS, whose call it bears; RFP signal change, %; measured here: RFP humanized mutant strains;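 first replicate; 0 = DMSO median and -100 = no signal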
# Numbers without * were called inactive; i = inactive; ? = inconclusive; / = no result given; + = active, no number. A portion of the library (hit frequency here may not be typical).
No.	canonical_smiles	HNF4A DNA FP	UCH37 DUB inh	Beta2AR agonist	FGF22 binding	E coli growth	rRNA inh HTS	rRNA inh HTS OD600	rRNA inh HTS RFP	ALR inh
1	CN(C)c1cc2c(cc1NS(=O)(=O)c1ccccc1)n(C)c(=O)n2C	1.3	0.9	-1	i	0.72	2	2	-1.6	14
2	COc1ccc(Nc2ccnc(Nc3ccc(OC)cc3)n2)cc1	0.6	0.2	7	/	0.67	/	/	/	98*
3	N#CCCCSC1=C(C#N)C(c2ccccc2Cl)CC(=O)N1 (stereo unspecified)	-0.2	4.0	-3	/	0.74	/	/	/	-3
4	CC1CCN(CC(=O)Nc2ccc(C(=O)N3CCCCC3)cc2)CC1	2.1	2.3	-1	i	0.62	2	7	-2.3	/
5	COc1cccc(NC(=O)CNC(=O)c2ccc(C)o2)c1	3.2	6.3	-4	i	0.65	-1	9	2.0	-6
6	CCc1nc2ccc(C(=O)NCCOc3ccc(OC)cc3)cn2c1N(C)Cc1ccc(OC)cc1	1.2	/	/	i	/	-3	-12	-0.5	/
7	COc1ccc(NS(=O)(=O)c2ccc(NC(=S)NC(=O)/C=C/c3ccc(C)cc3)cc2)nn1	1.5	/	13	/	/	/	/	/	-2
8	CN(C)c1cc(NC(=O)CN2CCCC2)c2ccccc2n1	0.0	-46	-3	i	0.66	-1	0	-1.6	-5
9	CCOc1ccc(/C=N/Nc2cc(N3CCOCC3)ncn2)c(O)c1	2.4	/	/	i	/	1	9	0.8	/
10	Cc1cccc(CNC(=O)C2CCC(=O)N(C3CCCCCC3)C2)c1 (stereo unspecified)	0.6	-3.1	-2	i	0.72	-3	-11	-2.0	-1
11	Cc1c(C(=O)O)oc2ccc(S(=O)(=O)N3CCC(C)CC3)cc12	-2.8	1.6	-6	/	0.73	/	/	/	-3
12	CCn1c2ccccc2c2cc(CNCCCN3CCOCC3)ccc21	-0.1	-1.7	6	i	0.63	2	4	-0.1	-4
13	Cc1ccccc1NC(=O)C1CCN(S(=O)(=O)c2ccc3c(c2)NC(=O)C(C)S3)CC1 (stereo unspecified)	12	4.9	3	i	0.69	-4	-10	3.5	-3
14	COC(=O)C1CCN(C2CN(Cc3ccccc3)S(=O)(=O)C2)CC1 (stereo unspecified)	6.1	/	/	i	/	3	8	-1.6	/
15	CCCCCCCCN1C(=O)[C@H](CC(=O)N2CCN(C(=O)c3ccco3)CC2)C[C@@]2(C(=O)OC)CCCCC=C12	-3.5	/	/	i	/	-17	-24	3.1	/
16	Cc1cccn2c(CN3CCNC(=O)CC3)c(C(=O)N(C)CCc3ccccc3)nc12	3.0	0.5	8	i	0.69	-7	-12	-0.6	/
17	COCCNC(=O)c1cc(-c2ccccc2)nn1Cc1cc(C)no1	3.0	1.7	4	i	0.7	4	-3	-3.0	-5
18	C=CC[C@@H](Cc1ccc(F)cc1)C(=O)OC[C@@H]1CCCN1C(=O)[C@@H](CC=C)CC(=O)N(CCO)Cc1ccccc1	-0.5	0.1	1	i	/	-13	-22	8.2	-5
19	Cc1nn(-c2ccccc2)c(Cl)c1/C=N/NC(N)=O	2.6	/	5	i	/	-5	0	-5.4	-3
20	COc1cc2c(cc1NC(=O)COc1ccccc1OC)oc1ccccc12	-2.6	-22	-6	/	0.73	/	/	/	1
21	CCN1C(=O)[C@H]2[C@H]3CN=C(SCc4ccccc4)N3[C@@](C)(C(=O)OC)[C@H]2C1=O	9.5	0.3	-4	i	0.71	20	9	3.6	/
22	Clc1ccc(SCc2cn3ccsc3n2)cc1	3.9	2.8	-3	/	0.68	/	/	/	32
23	Cc1ccc2nc(Cl)nc(-c3ccccc3)c2c1	5.7	-26	28	i	0.72	8	-2	2.4	-10
24	CCc1nc2c(OCc3ccc(C(=O)OC)cc3)cccn2c1N(C)C(=O)c1ccc(OC)cc1	-2.1	/	/	i	/	-7	-20	-0.3	/
25	COc1ccc(/C=C2\SC(=O)N(CCNC(=O)Cc3coc4cc(C)ccc34)C2=O)cc1OC	-2.8	2.4	14	i	0.67	-1	-8	-1.7	-7
26	O=C1NC2(CCCCC2)C(=O)N1c1ccc(Cl)cc1	2.0	0.2	2	i	0.67	2	9	-3.7	3
27	NS(=O)(=O)c1ccc(CCNC(=O)c2cc(-c3ccco3)nc3ccccc23)cc1	1.5	i	4	+	0.68	16	10	-3.3	11
28	Cc1ccc(S(=O)(=O)N2CCN(C(=O)CN3C(=O)c4ccccc4C3=O)CC2)c(C)c1	-6.3	5.8	-7	i	0.71	-14	-14	-6.3	-1
29	CCN(CC)c1cc(C)c2ccccc2n1	-2.3	-5.6	1	/	0.68	/	/	/	/
30	COCCCN1C(=O)c2ccc(C(=O)Nc3ccc(OC)cc3)cc2C1=O	2.7	2.4	-1	/	0.69	/	/	/	-11
31	O=C(c1ccco1)N1CCN(Cc2nnc(-c3ccccc3F)o2)CC1	0.7	1.6	7	/	0.66	0	-1	-0.8	/
32	CN1CCC(=O)N([C@H](CSc2ccc(Br)cc2)c2ccccc2)CC1	-1.6	1.3	-1	i	/	-51	-68	-19	/
33	CCc1ccccc1N(C)C(=O)CCc1nc(-c2ccc(C)cc2)no1	-1.6	3.4	-3	/	0.7	/	/	/	-2
34	Cc1ccc(NC(=O)COC(=O)CSCC(=O)Nc2cc(C)on2)c(C)c1	-2.9	1.6	-3	i	0.65	9	10	0.8	-6
35	COc1ccccc1NC(=O)CSc1nnc(CNC(=O)COc2ccc(Cl)cc2)o1	0.5	2.7	-8	/	0.68	/	/	/	-4
36	O=C(NC(Cc1c[nH]c2ccccc12)C(=O)N/N=C/c1cccc2ccccc12)c1cccs1 (stereo unspecified)	4.1	/	7	i	/	-10	-11	-1.1	1
37	COCCn1c(C(F)(F)F)ccc(NC(=O)c2ccccc2)c1=O	0.6	-0.2	-5	i	0.65	-4	-6	0.7	/
38	CCOC(=O)Cc1ccc(Nc2nc(NCc3cccs3)nc3ccsc23)cc1	0.0	/	/	i	/	14	-22	3.7	/
39	CC(C)c1ccc(CN(C)C(=O)c2ccc(S(=O)(=O)NCc3ccco3)cc2)cc1	7.5	3.5	19	i	0.66	-39	-75	-4.2	/
40	Cc1nc(SCc2ccc(C(=O)O)cc2)nc2c1CCCC2	0.8	4.1	10	i	0.7	-3	-10	-0.3	96*
41	COCCCNC(=O)Cn1cnc2c(NCc3ccccc3)ncnc21	-0.3	0.8	3	i	0.71	10	9	-3.7	/
42	CC(C)N(C(=O)CN1CCN(C(=O)C2COc3ccccc3O2)CC1)C(C)C (stereo unspecified)	-1.6	-2.2	5	i	0.7	4	2	-2.5	0
43	Cc1cc(C)c2c(N)c(C(=O)NN)sc2n1	0.7	-13	2	i	0.7	-10	5	1.6	1
44	COCCCNCCOCCOc1ccc(Cl)cc1C(C)(C)C	-11	3.6	28	i	0.67	-55	-83	-34	-3
45	COc1ccc2oc(C(=O)OCC(=O)N3CC(C)CC(C)C3)c(C)c2c1 (stereo unspecified)	-2.6	-35	10	i	0.67	-10	-24	0.5	-10

# Records listed so far shown as hits in ALR inh.
cpd | molecule | UCH37 DUB inh | Beta2AR agonist | rRNA inh HTS | rRNA inh HTS OD600 | rRNA inh HTS RFP | ALR inh
2 | COc1ccc(Nc2ccnc(Nc3ccc(OC)cc3)n2)cc1 | 0.2 | 7 | / | / | / | 98*
40 | Cc1nc(SCc2ccc(C(=O)O)cc2)nc2c1CCCC2 | 4.1 | 10 | -3 | -10 | -0.3 | 96*

# More compounds
No.	canonical_smiles	HNF4A DNA FP	UCH37 DUB inh	Beta2AR agonist	FGF22 binding	E coli growth	rRNA inh HTS	rRNA inh HTS OD600	rRNA inh HTS RFP	ALR inh
46	NS(=O)(=O)c1ccc(CCNC(=O)CCC2COc3ccccc3O2)cc1 (stereo unspecified)	-3.8	1.4	-6	/	0.67	/	/	/	-9
47	Cn1c(=O)[nH]c(=O)c2c1nc(N1CCCCCC1)n2CCOc1ccccc1	-1.3	-0.5	-12	i	0.68	8	7	-1.3	-1
48	O=C(COC(=O)c1cccnc1Nc1cccc(C(F)(F)F)c1)NC1CCS(=O)(=O)C1 (stereo unspecified)	1.3	-0.3	19	i	0.72	/	/	/	-2
49	COc1cc(OC)cc(C(=O)n2cnnc2N)c1	1.9	2.6	-8	/	0.65	/	/	/	?
50	CCN(CC)S(=O)(=O)c1ccc(NC(=O)CN(c2cccc(C)c2)S(C)(=O)=O)cc1	-0.2	-0.5	0	/	0.71	/	/	/	-14
51	Cc1nn(CC(=O)NCCCN2CCN(Cc3ccccc3)CC2)c(=O)c2cc(-c3ccccc3)nn12	5.9	1.6	-9	i	0.69	-1	3	1.1	-2
52	COc1ccccc1N1CCN(/N=C/c2cc(OC)c(O)c(OC)c2)CC1	-2.9	/	-7	i	/	3	0	-8.7	99*
53	O=C(CNC(=O)c1ccc(Br)o1)Nc1ccncc1	1.2	-0.7	1	i	0.63	10	15	-1.5	/
54	COc1cccc(CNC(=O)N[C@@H](C)C(=O)O)c1	2.5	1.4	2	i	0.68	8	3	-4.0	-10
55	COc1ccc(N(C(=O)COc2ccc(C)cc2)S(=O)(=O)c2ccc(C)cc2)cc1	-1.0	4.0	1	/	0.72	/	/	/	-1
56	CCC1(c2ccccc2)NC(=O)N(CC(=O)N2CC(=O)Nc3ccccc32)C1=O (stereo unspecified)	1.6	0.9	1	i	0.6	4	-1	-2.8	-1
57	COc1cc2c(cc1OC)CN(C(=O)C1CCCN1S(=O)(=O)c1ccc(F)cc1)CC2 (stereo unspecified)	-1.3	2.1	6	i	0.7	0	-23	14	-16
58	CCc1ccc(NC(=O)CNCc2ccc(OC)c(OC)c2)cc1	7.7	3.8	-5	i	0.68	4	1	-2.8	/
59	CN(CC(=O)Nc1cccc(F)c1)CC(=O)Nc1ccccc1Oc1ccccc1	1.3	0.6	-10	i	0.68	-50	-72	-7.1	-41
60	CCc1[nH]c(=S)c(C#N)c(-c2ccccc2)c1C(=O)OC	1.6	6.2	3	i	0.7	4	-5	0.7	10
61	O=C(CCc1nc2ccccc2[nH]1)Nc1ccc(F)cc1	-1.6	2.2	-4	/	0.71	/	/	/	-17
62	O=C(O)Cc1csc(NC(=O)CSc2cccc(C(=O)O)n2)n1	1.4	3.4	12	i	0.68	6	10	-1.0	-11
63	OCC1(CCOc2ccccc2)CCN(Cc2cc(Cl)ccc2O)CC1	5.4	2.7	8	i	0.64	-16	-25	3.9	7

# Part of the list above in order of heavy-atom count, rising:
No.	canonical_smiles	HNF4A DNA FP	UCH37 DUB inh	Beta2AR agonist	FGF22 binding	E coli growth	rRNA inh HTS	rRNA inh HTS OD600	rRNA inh HTS RFP	ALR inh
53	O=C(CNC(=O)c1ccc(Br)o1)Nc1ccncc1	1.2	-0.7	1	i	0.63	10	15	-1.5	/
52	COc1ccccc1N1CCN(/N=C/c2cc(OC)c(O)c(OC)c2)CC1	-2.9	/	-7	i	/	3	0	-8.7	99*
57	COc1cc2c(cc1OC)CN(C(=O)C1CCCN1S(=O)(=O)c1ccc(F)cc1)CC2 (stereo unspecified)	-1.3	2.1	6	i	0.7	0	-23	14	-16

# Screens as filed in PubChem.
